Assay outcomes (PubChem BioAssay)
A1 inh = inhibitors of the anti-apoptotic protein A1, read as caspase activation; MEF A1-2A-BIM cells, Caspase-Glo 3/7 luminescence, 3 h; percent of clofoctol response, vehicle zero; caspase activation, % (concentration not given with the values); hit rate 0.066% among 330,000;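 active = over half of replicate activation scores above 10%, or exactly half above 10 with the replicate mean above 10; inconclusive = replicate mean below 10 yet half the replicates above 10; inactive = over half of replicates below 10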;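 note: wells of about 30 µL received 50 nL stock; many hits fall short of the cut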
Beta cell apopt = blocks beta cell apoptosis. INS-1E cytokine-induced death, ATP luminescence, 48 h; percent of positive-control rescue, neutral wells zero. protection from apoptosis, % (no concentration beside the values). hit rate 0.8% among 300,000. AID 435005;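 active = all replicates at 75% or more, or half of them and the mean; inconclusive = half reach 75% but not the mean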;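 note: 0% = cytokine-treated negative control wells and 100% = positive control rescue; higher means more ATP so stronger rescue from cytokine killing; wells of about 40 µL received 100 nL stock; the first replicate is given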
Calb FLC = affects C. albicans growth with fluconazole; hit rate 0.57% among 300,000; growth inhibition, % (no concentration beside the values); C. albicans CaCi-2 (fluconazole-resistant clinical isolate) + fluconazole, Alamar Blue growth, 48 h;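 active = most replicates above 75%; inconclusive = exactly half above 75%; inactive = most below 75%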;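 note: all wells also contain fluconazole at 8 µg/ml as a sub-toxic cotreatment; 0% = median of DMSO wells and 100% = median of geldanamycin control wells; wells of about 8 µL received 7.5 nL stock; the first replicate is given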
LANA-H2B inh = blocks KSHV LANA binding to histone H2A/H2B | AID 2629 | inhibition, % (test concentration not listed) | cell-free LANA-H2A/H2B peptide, fluorescence polarization | Q9QR71 | hit rate 0.6% among 320,000; in the data active = inhibition mostly above about 10%, no sharp cut-off; inactive = mostly below about 6.7%;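 note: stock transfer was 7.5 nL into about 10 µL; 0% = median of vehicle wells and 100% = median of positive control wells; one replicate is shown; the record names a cut of 25% in any replicate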
B2AR ag = agonists of human beta-2 adrenergic receptor inducing internalization; P07550; Am2.2-beta2AR cells, FAP receptor internalization, flow cytometry; reference of the scale not given here; response, % (concentration not given with the values); hit rate 0.43% among 340,000;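 active = response above a set limit, near 3 SD of response in nonfluorescent compounds, cut at about 42% in these data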;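 note: stock transfer was 100 nL into about 11 µL; a reference agonist was the positive control; negative values mostly stem from fluorescent compounds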
Target sequence (P07550 whole entry, looked up): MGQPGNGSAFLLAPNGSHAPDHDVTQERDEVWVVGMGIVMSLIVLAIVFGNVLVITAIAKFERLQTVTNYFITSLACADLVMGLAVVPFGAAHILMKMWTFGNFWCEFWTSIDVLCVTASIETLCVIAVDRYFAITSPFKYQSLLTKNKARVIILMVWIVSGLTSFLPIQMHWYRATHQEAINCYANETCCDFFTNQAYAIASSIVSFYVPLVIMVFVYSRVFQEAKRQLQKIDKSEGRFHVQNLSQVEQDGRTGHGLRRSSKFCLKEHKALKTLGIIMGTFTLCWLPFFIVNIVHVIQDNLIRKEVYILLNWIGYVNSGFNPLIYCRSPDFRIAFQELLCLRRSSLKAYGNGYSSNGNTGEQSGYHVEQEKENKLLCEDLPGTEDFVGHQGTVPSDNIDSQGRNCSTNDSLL
T cruzi repl = blocks replication of Trypanosoma cruzi; inhibition, % (concentration not given with the values); T. cruzi beta-gal in NIH3T3, luminescence, 90 h; hit rate 1.4% among 300,000;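 active = mean inhibition across valid replicates above about 55%, limit read from the data; inconclusive = mean below that limit but half or more replicates reach it; inactive = mean below it, under half of replicates reach it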;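 note: signal also drops with host cell toxicity which is not excluded here; 0% = plate median of DMSO wells and 100% = zero luminescence signal; higher percent means less beta-gal luminescence so fewer parasites; stock transfer was 50 nL into about 50 µL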
UCH37 DUB inh = human UCH37 deubiquitinating enzyme inhibition; hit rate 0.33% among 330,000; Q9Y5K5; inhibition, % (test concentration not listed); purified proteasome/UCH37, Ub-AMC cleavage fluorescence;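 active = mean of two replicates above 20%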;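 note: 0% = compound-free wells with enzyme and 100% = wells lacking proteasome; stock transfer was 100 nL into about 20 µL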
Target sequence (Q9Y5K5 whole entry, looked up): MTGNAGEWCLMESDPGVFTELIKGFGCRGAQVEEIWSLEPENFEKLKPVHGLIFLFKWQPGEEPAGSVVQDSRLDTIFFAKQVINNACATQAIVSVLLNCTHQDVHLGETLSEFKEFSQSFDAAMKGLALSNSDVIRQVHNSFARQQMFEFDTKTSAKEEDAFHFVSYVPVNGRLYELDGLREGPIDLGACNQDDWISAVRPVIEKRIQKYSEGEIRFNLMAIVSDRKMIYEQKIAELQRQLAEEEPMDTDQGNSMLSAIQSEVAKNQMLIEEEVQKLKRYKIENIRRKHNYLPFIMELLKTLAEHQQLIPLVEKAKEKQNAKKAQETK
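System: Proteasome-associated human UCH37 deubiquitinase; Input: 0.15 nM proteasome in added enzyme buffer; Also added: Ub-AMC substrate from 1 µM stock; Incubation: 30 min compound-proteasome preincubation then 25 min substrate reaction, room temperature; Detection: fluorescence, ex 355 nm, em 460 nm; Read-out: % inhibition of Ub-AMC cleavage fluorescence; Benchmarks: no-proteasome and no-compound wells.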
RanGTP-Imp inh = disruptors of Ran-importin-beta complex formation – biochemical, FRET, CFP-Ran, YFP-importin-beta, homogeneous, primary screen; cell-free CFP-Ran/YFP-importin-beta FRET ratio; inhibition, % (test concentration not listed); hit rate 1.1% among 300,000;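 active = most replicates above 15%; inconclusive = exactly half above 15%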;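 note: 0% = DMSO wells and 100% = Ran loaded with GDP instead of GTP; wells of about 40 µL received 100 nL stock; the first replicate is given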
Starred values were filed as active, the others as inactive; i = inactive; ? = inconclusive; . = not tested or not shown.

SMILES	A1 inh	Beta cell apopt	Calb FLC	LANA-H2B inh	B2AR ag	T cruzi repl	UCH37 DUB inh	RanGTP-Imp inh
Cc1ccc(C)c(NC(=O)NCCN2CCCCC2)c1	0.2	.	11	1.7	-8	-11	0.0	-0.9
COc1ccc(N2CCN(C(=O)Cn3cnc4c3c(=O)n(C)c(=O)n4C)CC2)cc1	-0.2	.	-10	5.9	3	-1	0.2	?
CC1CN(C(=O)Nc2ccc(Br)cc2Cl)CC(C)O1 (stereo not given)	-0.3	1	6	-1.9	-5	1	0.8	1.3
COc1cc(/C=N/NC(=O)c2cccc(S(=O)(=O)N3CCCC3)c2)cc(OC)c1O	0.7	4	1	2.2	10	-11	.	6.8
COc1ccc(Nc2nc(-c3cccs3)nc3ccccc23)cc1S(=O)(=O)N1CCOCC1	0.6	29	-3	-0.9	23	55*	-117	0.9
O=[N+]([O-])c1ccc(Sc2ccccc2)nc1	0.0	-4	0	-3.0	-10	-3	-0.8	7.7
CCN(c1ccccc1)S(=O)(=O)c1ccc(C(=O)NCCCn2ccnc2)cc1	1.2	7	-2	-8.8	8	4	-0.6	0.9
Cc1c(NC(=O)CC2NC(=O)NC2=O)c(=O)n(-c2ccccc2)n1C (stereo not given)	0.4	0	22	-2.1	.	-12	-1.3	-1.2
COc1ccccc1CNC(=O)Cn1cc([N+](=O)[O-])ccc1=O	0.0	-8	1	2.5	5	1	4.8	-0.3
Cc1nn(C)c(=O)n1-c1ccc(OCc2ccccc2)cc1	.	6	-12	-6.7	6	-3	-7.3	-4.0
Cc1ccc(NC(=O)N2C3CCCC2CC(NC(=O)C2CC2)C3)cc1 (stereo not given)	-0.7	-1	31	-0.2	2	-10	2.4	3.3
Cc1ccc(CN2C(=O)C(=O)N(CC(N)=O)C2=O)cc1	-0.3	-3	3	-5.5	3	-7	3.4	0.3
CC(=O)N1CCc2cc(S(=O)(=O)NCCC(=O)NCCc3ccc(C)cc3)ccc21	-0.1	32	-2	-5.8	3	-5	1.1	1.0
Cc1cc2nc(/C=C/c3cccnc3)[nH]c2cc1C	0.9	.	1	0.3	13	3	i	2.0
Nc1ccc(Sc2ccccc2CC(=O)O)cc1	-0.5	2	-8	-2.8	.	1	.	-3.9
CC(C)C(=O)Nc1cccc(C(=O)Nc2ccc(S(=O)(=O)N3CCOCC3)cc2)c1	0.3	-1	-4	-2.3	0	-5	1.5	-0.8
CN1CCN(c2ccc(NC(=O)c3ccc4c(c3)OCCO4)cc2Cl)CC1	-0.1	.	15	-12	12	16	-0.8	-2.7
Cc1ccc([N+](=O)[O-])cc1NC(=O)C1CCCC1	1.4	.	96*	-4.1	4	-8	3.1	5.5
CCN(CC)S(=O)(=O)c1ccc(NC2CCN(Cc3ccccc3)CC2)nc1	0.8	-5	-2	-0.6	0	41	2.4	10
CCn1cc(/C=C2/SC(=S)NC2=O)c(C)n1	-0.6	0	4	3.6	13	5	8.7	-2.5
O=C(CNS(=O)(=O)c1ccc2ccccc2c1)OCc1nnc(-c2ccccc2)o1	-0.2	-8	13	2.5	5	-26	0.3	4.7
Cc1ccc(/C=N/NC(=O)CSc2nc3ccccc3[nH]2)o1	0.2	-5	0	-3.6	-1	-3	.	1.8
CC1CCC/C(=C\Nc2ccc(C(=O)O)c(O)c2)C1=O (stereo not given)	-7.2	1	20	7.2	-4	-5	20	-8.0
Cc1ccc(NC(=O)CSc2ncn[nH]2)c([N+](=O)[O-])c1	0.2	-1	.	3.5	-1	.	2.9	.
CN(C)/C=C/C(=O)c1ccncc1	-0.4	.	-6	-1.6	-5	-8	13	-2.5
CCNC(=S)N(Cc1cc2c(C)ccc(C)c2[nH]c1=O)C1CCCC1	0.5	-5	-3	1.3	-7	15	-1.7	1.8
Cc1nc2cc(NS(=O)(=O)c3cccc4cccnc34)ccc2s1	1.2	.	20	-1.5	-7	-23	0.0	4.7
CC(C)Cc1nnc(NC(=O)CCC(=O)N2CCN(c3ccccc3)CC2)s1	-1.5	-4	-2	1.7	-3	-15	5.1	14
CSc1nn(-c2ccc(C(=O)OCC(=O)NC(=O)NC(C)C)cc2)c(=S)s1	-0.1	-6	-6	-0.7	-5	-14	3.4	3.0
COc1cccc(CNC(=O)C2CCCN(c3nc4ccccc4o3)C2)c1 (stereo not given)	1.9	0	-2	14*	-6	-2	4.5	2.8
COc1ccc(C2(C(=O)NCc3ccco3)CCCC2)cc1OC	-0.3	-4	-36	0.7	-15	-5	2.3	-1.4
CCCCC(O)CN1CCC(c2ccccc2)CC1 (stereo not given)	0.6	2	6	-4.1	1	8	2.0	1.2
O=C1NCCCc2nonc21	0.5	-3	-3	2.6	-4	-4	2.6	-1.8
Cc1nnc(NC(=O)c2cccc(S(=O)(=O)N3CCN(C)CC3)c2)s1	-0.9	-4	-1	-2.0	-7	-11	4.5	.
CCO/C=C1/C(=O)N(C(C)=O)c2ccccc21	0.2	-7	-1	0.5	-3	-5	6.2	5.6
CCc1nnc(SCC(=O)Nc2nc(C)c(C(=O)N(C)C)s2)n1CC	0.5	-3	2	-0.9	-4	-2	1.9	5.6
CCOC(=O)c1sc(=S)n(-c2ccccc2)c1N	-0.1	2	-5	0.6	10	-4	1.7	-3.9
Cc1nc2sc(C(N)=O)c(N)c2c2c1CCCC2	-0.7	-7	27	3.2	-1	6	-101	2.3
COCCSc1ccccc1C(=O)N1CCOCC1	1.2	-2	-1	-2.6	2	-8	0.7	0.8
COc1ccc(-c2nnc(SCC(=O)c3ccc[nH]3)n2-c2ccccc2)cc1	0.6	-8	12	-7.3	-34	23	4.2	0.8
Cc1sc2ncnc(SCC(=O)Nc3nc(-c4ccc(F)c(F)c4)cs3)c2c1C	0.2	5	7	3.5	-5	1	.	4.3
Cc1ccc(CNC(=O)C2CC(=O)N(C3CCCCCCC3)C2)cc1 (stereo not given)	0.4	5	-5	-4.2	10	0	-1.1	0.3
COCCn1c(C)cc(C(=O)CSc2ncnc3sc4c(c23)CCC4)c1C	.	.	2	.	-2	12	-0.3	1.4
Nc1nnnn1/N=C/C=C/c1ccccc1	1.1	2	0	2.7	2	-5	.	-1.4
CC(C)NC(=O)c1onc(CSc2ccc(F)c(F)c2)c1C(=O)O	1.6	-8	-9	8.3	-1	-3	5.0	-4.0
COc1ccccc1NC(=S)NC(NC(=O)CC(C)C)C(Cl)(Cl)Cl (stereo not given)	0.0	-6	-7	-3.4	4	4	0.0	8.2
COP(=O)(OC)C(NC(=O)Nc1ccccc1)c1ccccc1 (stereo not given)	-0.3	0	9	-2.0	0	13	2.4	-1.9
COc1ccc(S(=O)(=O)N2CCCCC2)cc1NC(=O)c1ccc(=O)[nH]c1	-1.4	-1	0	1.2	-2	10	-2.6	-1.4
Cc1nn(-c2ccccc2)c(C)c1/C=N/NC(=O)CSc1nnc(SCc2ccccc2Cl)s1	-4.4	5	3	-0.2	-10	23	.	?
Cc1cc(C)n2nc(C(=O)N3CCOCC3)nc2n1	1.0	-5	5	-2.2	-2	4	2.3	-0.8
CCCCC[C@H](O)/C=C/[C@@H]1[C@@H](C/C=C\CCCC(=O)O)[C@H]2CO[C@@H]1C2	.	.	.	-8.2	10	27	5.6	1.7
CC1(C)NC(=O)N(CC(O)COc2ccccc2[N+](=O)[O-])C1=O (stereo not given)	-0.5	-7	-1	0.2	-4	-5	5.0	-2.2
CSCCC(NC(=O)c1ccco1)C(=O)OCC(=O)Nc1sccc1C#N (stereo not given)	0.2	-13	-2	7.8	.	-9	2.8	1.8
CC(Sc1nnc(NC2CC2)s1)C(=O)Nc1ccc(S(N)(=O)=O)cc1 (stereo not given)	-1.0	2	.	-0.6	-9	.	2.1	.
COC(=O)CN(c1ccc(F)cc1)S(=O)(=O)c1ccc2c(c1)OCCO2	0.9	-6	12	-1.8	27	-5	0.9	-2.4
CSc1ccc(CCNC(=O)CN2C(=O)CCSc3ccccc32)cc1	1.3	-4	5	-0.1	-9	-3	4.4	5.8
c1ccc(CCNc2nc(-c3ccncc3)nc3ccccc23)cc1	-0.1	22	8	-0.6	15	19	-26	0.6
C=C1C[C@H](O[C@@H]2O[C@H](CO)[C@@H](O)[C@H](O)[C@H]2O)[C@@H]2[C@H](OC(=O)[C@H]2C)[C@H]2[C@H](C)[C@H](O)C[C@@H]12	0.1	1	.	-1.6	1	.	1.4	.
CCOC(=O)C1=C(C)OC(N)=C(C#N)C1c1ccoc1 (stereo not given)	0.0	-3	-3	-3.8	15	-12	2.6	0.4
O=C(Nc1ccc2nc(N3CCOCC3)sc2c1)c1ccccc1	-1.8	1	.	.	15	.	-1.9	.

Next records follow:
SMILES	A1 inh	Beta cell apopt	Calb FLC	LANA-H2B inh	B2AR ag	T cruzi repl	UCH37 DUB inh	RanGTP-Imp inh
CCCc1nc2ccccc2c(C(=O)OCC(=O)Nc2c(C)n(C)n(-c3ccccc3)c2=O)c1CC	0.4	-5	21	-0.5	-16	-15	1.4	-0.3
COc1ccccc1Oc1cc(C#N)c(C#N)cc1-n1nnc2ccccc21	-0.4	3	-1	-0.7	13	50	4.8	-0.5
Cc1cc(C)c(NC(=O)/C(=C/c2ccco2)c2ccccc2)c(C)c1	1.9	-13	6	-9.8	-14	-4	1.5	3.6
COc1ccc(OC)c(C(=O)CSc2nc3ccccc3n2CC(=O)NC(C)(C)C)c1	0.2	-7	.	-5.0	-2	.	1.5	.
CCOc1ccccc1C1CC(=O)Nc2cc(OC)c(OC)c(OC)c21 (stereo not given)	-0.4	2	-13	-0.7	-2	-2	0.6	-10
O=c1[nH]cnc(O)c1C(c1ccc([N+](=O)[O-])cc1)c1c(O)nc[nH]c1=O	-0.3	0	6	-2.0	-1	-6	1.8	2.4
Cc1cc(-c2ccccc2)c2nncn2n1	0.8	-5	4	-0.7	14	-7	-39	-0.8
CS(=O)(=O)N1CCC(C(=O)NCc2ccc(Cl)cc2)CC1	-0.1	-1	4	-2.5	-3	-2	1.0	0.4
CC(C)N(C(=O)[C@H]1CC(CC(=O)NC(C)(C)C)C(=O)N2CCc3c([nH]c4ccccc34)[C@]12C)C(C)C (stereo not given in full)	1.2	-8	.	0.1	-1	.	0.8	.
CCCS(=O)(=O)N1CCC(C(=O)NCc2ccc3c(c2)OCO3)CC1	-0.1	-2	-25	-3.1	3	-10	0.6	-0.3
N#CC(C(=O)C12CC3CC(CC(C3)C1)C2)c1nc2ccccc2[nH]1 (stereo not given)	-0.6	13	-10	0.5	-1	20	0.1	7.4
CN1CC(=O)N(CC(=O)Nc2ccc(OCc3ccccc3)cc2)C1=O	-2.4	5	.	3.4	-6	.	0.5	.
Cc1ccc(C(=O)COC(=O)CNC(=O)c2cccs2)cc1	1.0	1	-6	-2.1	-21	-23	-3.1	0.3
O=C(CSc1nnc(-c2ccco2)o1)Nc1ccccc1Cl	1.0	-9	3	8.6	7	-6	6.1	-6.6
O=c1c(O[C@H]2O[C@@H](CO)[C@H](O)[C@@H](O)[C@@H]2O)c(-c2ccc(O)cc2)oc2cc(O)cc(O)c12	1.6	0	.	4.9	3	.	2.6	.

An unsorted share of the library; overall some 4.3% were active at least once.
